High-throughput results (PubChem)
VDR inh: Inhibitors of the vitamin D receptor (VDR): qHTS; Vitamin D3 receptor (Homo sapiens), P11473; VDR-SRC2-3 peptide fluorescence polarization, 2 h; Potency, µM, for the others: max response, negative = inhibition, actives largely listed as inhibitors; actives 0.93% (n = 400,000); active = well fitted inhibition curve with a large enough effect; inconclusive = small, poorly fitted or top-dose-only effect, or another doubt; inactive = no such curve, though single readings can be large or run the other way; note: series mostly up to about 120 µM
Target sequence (P11473 whole entry, looked up): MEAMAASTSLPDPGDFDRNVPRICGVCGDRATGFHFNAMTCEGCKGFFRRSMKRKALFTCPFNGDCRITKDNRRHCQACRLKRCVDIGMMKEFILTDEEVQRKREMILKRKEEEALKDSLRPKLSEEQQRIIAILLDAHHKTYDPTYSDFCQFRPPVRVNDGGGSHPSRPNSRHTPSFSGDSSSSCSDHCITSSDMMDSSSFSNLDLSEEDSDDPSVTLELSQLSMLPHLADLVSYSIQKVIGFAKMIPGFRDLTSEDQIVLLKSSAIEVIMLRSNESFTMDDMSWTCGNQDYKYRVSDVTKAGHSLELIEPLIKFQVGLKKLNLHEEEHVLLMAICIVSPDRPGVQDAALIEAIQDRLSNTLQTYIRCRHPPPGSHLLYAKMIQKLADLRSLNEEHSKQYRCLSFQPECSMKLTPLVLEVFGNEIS
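Compounds are added to VDR with labelled SRC2-3 coactivator peptide and held 2 h at room temperature. Inhibition of the VDR–peptide interaction is then read as a change in fluorescence polarization.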
Numbers without * were called inactive; ? = inconclusive; & = joins results of further samples. % is set by controls: 0 for no effect and ±100 for the full control effect; potency is the fitted concentration of half-maximal effect. Only part of the results is shown. The share of hits here may be higher or lower than overall.

SMILES	VDR inh
Cc1cccc(C(=O)N2CCN(S(=O)(=O)N3CCCCC3)CC2)c1	0.3%
COc1ccc(-c2cc(C(=O)NCc3cccnc3)no2)cc1OC	?
CC(=O)C1=C(c2ccccc2)OC(N)=C(C#N)C1c1ccc(O)cc1 (stereo not drawn)	26.6%
CCOc1ccc(/C=C/c2nc(C#N)c(NC3CCCCC3)o2)cc1	-1.8%
COc1ccccc1-c1nnc(SCC(=O)c2c(N)n(C3CC3)c(=O)[nH]c2=O)o1	-2.1%
CCC1CCC(C(=O)NC(C(=O)NCCCN2CCCCC2C)C(C)C)CC1 (stereo not drawn)	-0.8%
CCN(C/C=C/C#CC(C)(C)C)Cc1cccc(OCc2cc(-c3ccsc3)cs2)c1	3.1%
Nc1nonc1-n1nnc(C(=O)N/N=C/c2ccco2)c1CSc1ccccc1	11.4%
O=C(NCc1ccc2c(c1)OCO2)c1ccc(Br)s1	5.5%
N#CCCN1CCN(S(=O)(=O)c2ccc3c(c2)CCC3)CC1	-12.1%
CCCCNC(=O)c1ccccc1NC(=O)c1ccccc1N(C)S(C)(=O)=O	3.3%
Cc1ccc(C(C(=O)NCc2ccco2)N(CCc2ccccc2)C(=O)Cn2nnc3ccccc32)o1 (stereo not drawn)	17.0%
Cc1cc(C)c(OCC(=O)NCC2CCCO2)c(C)c1 (stereo not drawn)	0.5%
CCn1c(SCCOc2ccc(Cl)cc2)nnc1-c1cccs1	-5.5%
COC(=O)c1ccccc1NC(=O)c1nn(-c2ccc(OC)cc2)c(=O)c2c1c1ccccc1n2C	-3.9%
Cc1nn(-c2ccccc2)c(C)c1/C=N/NC(=O)CSc1nnc(-c2ccccc2)n1-c1ccc(Cl)cc1	7.8%
O=C(Nc1nnc(S(=O)(=O)N2CCCCC2)s1)c1ccc(Cl)cc1	-16.2%&2.7%
CCN(CC(=O)NCc1ccc(Cl)cc1)C(=O)CSc1ccc(F)cc1	5.0%
Cc1ccc(N(C)C(=O)c2cc(S(=O)(=O)N3CCOCC3)cn2C)cc1	10.0%
COc1ccc(C2C(C(=O)N3CCN(c4ccccn4)CC3)CCC(=O)N2c2ccc(OC)cc2)cc1 (stereo not drawn)	4.8%
O=C(c1ccc(Br)cc1)N(C1=NCCCCS1)c1ccccc1	0.3%
Cc1ccc(S(=O)(=O)c2nc(-c3ccccc3Cl)oc2N2CCCCCC2)cc1	-3.4%
C[C@H]1CN[C@H](CCO)/C1=C\c1ccccc1	-21.9%
CC(C)C(=O)OCc1cn(-c2ccc(Cl)c(Cl)c2)nn1	-9.7%
CC(C)(C)NC(=O)C1Cc2ccccc2CN1C(=O)Nc1ccccc1Cl (stereo not drawn)	6.4%
COc1cc(C(CC(=O)N2CCCC2)c2c(OC)cc(OC)c3ccc(=O)oc23)cc(OC)c1OC (stereo not drawn)	-28.8%&-6.8%
Cn1nnc(NC(=O)c2ccc(C(C)(C)C)cc2)n1	-3.7%
CCCCOc1ccc(CSc2n[nH]c(C)n2)cc1	-4.9%
CN(C)C(=O)c1cc(C(=O)c2ccccc2C(F)(F)F)c[nH]1	-2.3%
COc1ccc(-c2oc3ncn4nc(-c5ccccc5C)nc4c3c2-c2ccc(OC)cc2)cc1	0.5%
O=C(N=C1SC2CS(=O)(=O)CC2N1Cc1ccccc1Cl)C1CC1 (stereo not drawn)	13.9%
CC(=NNC(=O)c1ccncc1)c1cccc(Cl)c1	-3.6%
COc1ccc(C(=O)N/N=C/C(=O)c2ccccc2)cc1	5.8%
CC(C)CC1Nc2ccc(C(=O)NCc3ccc4c(c3)OCO4)cc2NC1=O (stereo not drawn)	-21.3%
N#CCCC(CCC#N)(CCC#N)c1cc[n+](CCc2ccccn2)cc1	-6.8%
O=C(Nc1ccc(Oc2ccccc2)cc1)C1CCN(c2c3c(nc4ncnn24)CCC3)CC1	2.4%

Random excerpt: two compounds from above.
SMILES	VDR inh
Cn1nnc(NC(=O)c2ccc(C(C)(C)C)cc2)n1	-3.7%
CC(C)CC1Nc2ccc(C(=O)NCc3ccc4c(c3)OCO4)cc2NC1=O (stereo not drawn)	-21.3%

Going on with the list:
SMILES	VDR inh
CC(C)c1ccc(S(=O)(=O)NCc2ccc3c(c2)OCO3)cc1	-4.2%
COc1ccccc1CCNC(=O)CCc1c(C)c2cc3c(C)coc3c(C)c2oc1=O	-3.0%
Cc1ccc(S(=O)(=O)C(CNC(=O)COc2ccccc2)c2cccs2)cc1 (stereo not drawn)	-4.3%
NS(=O)(=O)c1ccc(NC(=O)CN2CCCC2)cc1	8.1%
Cc1ccc2cc(C=O)c(N(C)C)nc2c1	2.2%
O=C(CCN1C(=O)c2ccccc2C1=O)NCCC1=CCCCC1	6.7%
CCOC(=O)c1cnc(SCc2nc(N)nc(Nc3ccc(F)cc3)n2)nc1N	1.2%
N#Cc1nc(Cc2ccccc2)oc1NCc1ccccc1	-7.8%
CN(CCc1ccccn1)C(=O)c1ccc(OC2CCN(Cc3ccccn3)CC2)cc1	9.0%
COc1cc2c(cc1OC)CN(C(=O)c1cc(Cl)nc(Cl)c1)CC2	-13.6%
O=C(Nc1cccnc1)c1ccc(COc2ccccc2Br)cc1	-13.5%
O=C(Nc1ccc(OC(F)(F)F)cc1)Oc1ccccc1N1CCCCC1	-19.5%
COC(=O)Cc1cc(C)cc2c(=O)cc(-c3ccoc3)oc12	14.4%
Nc1ccc(S(=O)(=O)N2CCOCCOCCOCCOCCOCC2)cc1	-24.6%
Cc1cccc2nc3ccccc3cc12	4.6%
Cc1csc(NC(=O)c2ccc(S(=O)(=O)N3CCCC3)cc2)n1	-15.5%
Cc1ccc(Cn2ccc(NC(=O)c3noc4c3CCc3ccccc3-4)n2)cc1	-2.4%
COc1cc(NC(C)=O)c2ncccc2c1NC(C)=O	1.7%
CN1CCN(C(=O)/C(C#N)=C/c2ccc(OC(F)F)cc2)CC1	0.3%
Cc1noc(C)c1-c1ccc2nc[nH]c(=O)c2c1	-10.2%
CCc1ccc2c(c1)Sc1ccccc1CC2N1CCN(C)CC1 (stereo not drawn)	-11.0%
Cc1nnc(SC(C)C(=O)NC2CCCc3ccccc32)n1-c1ccccc1 (stereo not drawn)	-12.4%
NC(=O)C1CCN(C(=O)c2ccc3c(c2)N(Cc2cccc(Cl)c2)C(=O)c2ccccc2S3=O)CC1 (stereo not drawn)	-0.5%
C#CCCOC(=O)N1C2=NC(C(=O)OC)=C(C(=O)OC)[C@@H]3Nc4ccccc4[C@]23C[C@H]1C(=O)OC	-7.9%
CCOC(=O)c1nn(-c2ccc(C)c(C)c2)c(=O)c2c(N)scc12	7.5%
COc1ccc(CNC(=O)C(c2ccco2)N(C(=O)Cc2cccs2)c2cccnc2)cc1 (stereo not drawn)	-8.8%
CCS(=O)(=O)c1nc(S(=O)(=O)c2ccc(Cl)cc2)c(NCc2ccco2)s1	-0.1%
COC(=O)c1sc(S(=O)(=O)N2CCN(c3ccc(OC)cc3)CC2)c(C(=O)OC)c1C	8.0%&8.2%
CCn1cc(S(=O)(=O)NCCc2ccc(F)cc2)cn1	7.9%
CCOc1cc(C2C(C(=O)c3ccco3)=C(O)C(=O)N2CCc2ccccc2)ccc1O (stereo not drawn)	-21.6%
CCOc1ccc(S(=O)(=O)NCCC(=O)N2CCCN(C)CC2)cc1	-15.3%
CCOc1ccccc1N(C)C(=O)c1nn(-c2ccc(OC)cc2OC)c(=O)c2ccccc12	0.7%
Cc1ccc(N=Nc2c(N)nn3c(C)cc(C)nc23)cc1	-13.7%
COc1ccc(N2C(=O)c3ccc(C(=O)Nc4ccccc4OC)cc3C2=O)cc1	-5.4%
COC(=O)[C@@H]1C[C@]2(OC(=O)c3ccccc3)C=CC(=O)C[C@@H]2N1C(=O)OCc1ccccc1	?
Cc1ccc(C)c(N(Cc2cc3ccc(C)cc3[nH]c2=O)C(=O)c2ccco2)c1	-13.6%
O=C(CN1CCOCC1)Nc1ccc(F)cc1	-28.1%
COc1cccc(OC)c1-c1cc(C(=O)NC2(C(=O)O)C3CC4CC(C3)CC2C4)nn1-c1ccc(C(=O)N(C)CCCN(C)C)cc1C(C)C (stereo not drawn)	-15.3%
COc1cc2c(cc1NC(=O)COc1ccc(Br)c(C)c1)oc1ccccc12	-16.9%
COc1ccc(S(=O)(=O)c2c(O)c3ccc(C(=O)NCc4ccc(Cl)cc4)cc3[nH]c2=O)cc1	5.0%
CCCCn1c(N)c(-c2nc3ccccc3o2)c2c([N+](=O)[O-])nn(C)c(=O)c21	3.6%
COc1ccc(/C=N/Nc2ncnc3scc(-c4ccccc4)c23)cc1OC	-1.9%
COc1ccc(Cl)cc1NC(=O)CN(C)C(=O)Cc1ccsc1	-6.4%
Cc1n[nH]c(=O)c2c(NC(=O)CSc3nnc(-c4ccncc4)n3C)oc(C)c12	-19.4%
CC1(C)CC(=O)C2=C(C1)Nc1ncnn1C2c1ccccn1 (stereo not drawn)	-3.8%
CC(=O)c1cc2c(cc1NS(=O)(=O)c1ccccc1Br)OCO2	-18.6%
C/C=C(\C)C(=O)OC(C)(C)[C@H]1Cc2cc3ccc(=O)oc3cc2O1	1.9%
COc1cc(C(=O)Nc2ccc(NC(=O)C3CC3)nc2)cc(OC)c1OC	3.1%

Sorted by molecular weight (smallest number first): some entries from above
SMILES	VDR inh
CC1(C)CC(=O)C2=C(C1)Nc1ncnn1C2c1ccccn1 (stereo not drawn)	-3.8%
CC(=O)c1cc2c(cc1NS(=O)(=O)c1ccccc1Br)OCO2	-18.6%
COc1ccc(S(=O)(=O)c2c(O)c3ccc(C(=O)NCc4ccc(Cl)cc4)cc3[nH]c2=O)cc1	5.0%

The list continues.
SMILES	VDR inh
CCSc1cc(N2CCCC2)nc(-c2ccc(F)cc2)n1	0.6%
Clc1ccc(C2=Nn3c(Cn4nnc5ccccc54)nnc3SC2)cc1	79.4µM*
COCCNc1c2c(c(C#N)c3nc4ccccc4n13)CCCC2	-1.4%
CC(C)c1nc(C#N)c(N2CCOCC2)o1	9.7%
COc1ccc(S(=O)(=O)N2CCC(C(=O)NCCC(=O)Nc3cccc(Cl)c3)CC2)cc1	28.2µM*
c1ccc2oc(SCc3cn4ccccc4n3)nc2c1	-2.1%
O=C(Cn1ccc([N+](=O)[O-])n1)N1CCc2ccccc21	1.5%
O=C(NCC1CCS(=O)(=O)C1)NCC1CCS(=O)(=O)C1 (stereo not drawn)	-2.6%
O=C(CSc1nnc(-c2ccncc2)o1)Nc1cc(F)ccc1F	-16.1%
O=C(N/C(=C\c1cccc([N+](=O)[O-])c1)C(=O)N1CCOCC1)c1ccc([N+](=O)[O-])cc1	6.6%
CCc1cccc(CC)c1NC(=O)CSc1nc2ccc(N3C(=O)C4C5C=CC(C5)C4C3=O)cc2s1 (stereo not drawn)	0.9%
CCn1cnc2c(=O)oc3ccc(S(=O)(=O)Nc4ccc(OC)cc4)cc3c21	-9.1%
CCNc1ccc(C(=O)OCC(=O)NCCN2C(=O)CSC2=O)cc1[N+](=O)[O-]	16.6%
O=C1CCN(Cc2ccccc2)CCN1[C@H](COc1ccccc1)Cc1ccccc1	-14.4%
Cc1cc(C)c2c(N)c(C(=O)Nc3nccs3)sc2n1	-7.0%
CCOC(=O)c1cnn(-c2ccccc2)c1NC(=O)c1ccccc1C	-4.9%
COc1ccccc1-c1nnc2sc(COc3ccc(Cl)cc3Cl)nn12	-12.4%
CC(C)C(=O)NC(c1cccc([N+](=O)[O-])c1)c1c(O)ccc2ccccc12 (stereo not drawn)	-8.7%
CCOC(=O)N1CCN(Cc2nc3c(c(=O)n(C)c(=O)n3C)n2CCCc2ccccc2)CC1	-9.2%
Cc1ccc(C)c(Cn2c(=O)n(C(C)C)c(=O)c3oc4ccccc4c32)c1	-7.8%
CCn1c(CNC(=O)c2ccc(Cl)cc2)nnc1SCC(=O)N1CCOCC1	14.2%
CC(C)C[C@H]1CNC(=S)N1CC1CCN(CC2CCC(C(C)(C)C)CC2)CC1 (stereo partly drawn)	-24.9%
O=C(OC(C(=O)Nc1ccc(Cl)cc1C(F)(F)F)c1ccccc1)C1=COCCO1 (stereo not drawn)	-0.9%
CCc1nnc(NC(=O)CSc2nnc(COc3ccccc3)n2Cc2ccccc2)s1	-4.8%

Individual results from the list:
For VDR inh, COc1ccccc1-c1nnc2sc(COc3ccc(Cl)cc3Cl)nn12 reads -12.4%
For VDR inh, CCNc1ccc(C(=O)OCC(=O)NCCN2C(=O)CSC2=O)cc1[N+](=O)[O-] reads 16.6%
For VDR inh, CCn1c(CNC(=O)c2ccc(Cl)cc2)nnc1SCC(=O)N1CCOCC1 reads 14.2%
For VDR inh, CC(C)C[C@H]1CNC(=S)N1CC1CCN(CC2CCC(C(C)(C)C)CC2)CC1 (stereo partly drawn) reads -24.9%

Arranged by the number under VDR inh (lowest first): five from the list above.
SMILES | VDR inh
O=C1CCN(Cc2ccccc2)CCN1[C@H](COc1ccccc1)Cc1ccccc1 | -14.4%
Cc1cc(C)c2c(N)c(C(=O)Nc3nccs3)sc2n1 | -7.0%
CCOC(=O)c1cnn(-c2ccccc2)c1NC(=O)c1ccccc1C | -4.9%
CCc1nnc(NC(=O)CSc2nnc(COc3ccccc3)n2Cc2ccccc2)s1 | -4.8%
O=C(OC(C(=O)Nc1ccc(Cl)cc1C(F)(F)F)c1ccccc1)C1=COCCO1 (stereo not drawn) | -0.9%

Going on with the list:
SMILES	VDR inh
CSc1ccc(C2Nc3cccc4cccc(c34)N2)cc1	-16.3%
CCCS(=O)(=O)NCc1cn2c(C)csc2n1	-12.8%
Cc1ccc(/C=N/NC(=O)c2nnn(-c3nonc3N)c2-c2cccs2)cc1	10.8%
CCCCC1CCC(C(=O)Nc2ccc(N3CCOCC3)cc2N2CCOCC2)CC1 (stereo not drawn)	18.5%
O=C1C2C3CCC(C3)C2C(=O)N1Cc1ccccc1 (stereo not drawn)	-24.3%
OCc1ccc(-c2ccc(-c3ccc(CO)s3)o2)s1	10µM*
COc1ccccc1C(=O)O/N=C(\N)c1ccccc1Cl	-0.6%
O=C(CSc1nc2c(c(=O)n1-c1ccc(Cl)cc1)SCC2)Nc1ccc2c(c1)OCCO2	-8.4%
Cn1nnc(NC(=O)c2ccco2)n1	23.1%
COc1ccccc1Nc1nc(N)nc(CSC(=S)N2CC(C)CC(C)C2)n1 (stereo not drawn)	-1.9%
O=[N+]([O-])c1ccc(O)c(-c2nn[nH]n2)c1	-22.9%
